AID504770: E. coli YBA685 growth inhibition, screen for V. cholerae RctB inhibitors; z-score (concentration not given with the values); AID 504770; hit rate 0.27% among 130,000; E. coli YBA685 rctB-dependent plasmid, OD600 growth, 3 h; stronger effect = lower value;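 active = z-score under -2 on both plates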;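 also: wells of about 30 µL received 100 nL stock; score is relative to mean and SD of the test wells; the first replicate is given; strong numbers were not always called active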
CapD inh: inhibitors of Bacillus anthracis CapD enzyme. purified CapD enzyme, fluorescence intensity read-out; stronger effect = lower value; some hits fall short of the stated cut. z-score (concentration not given with the values). hit rate 0.23% among 140,000. AID 492967;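 active = z-score under -4 in either of two replicates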;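 also: stock transfer was 100 nL into about 40 µL; score is relative to mean and spread of the plate; one replicate is shown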
Active calls of the source: *; i = inactive; · = no result given; & = joins results of further samples.

SMILES	AID504770	CapD inh
CC(C)c1ccc(NC(=O)NC2(C(F)(F)F)Oc3ccccc3O2)cc1	·	-0.86
Cc1cc(C)c(C#N)c(SCC(=O)NC2CC2)n1	0.5	-0.74
CCCCn1c(=O)c(C(=O)Nc2nccs2)c(O)c2ccccc21	0.25	0.13
Cc1ccc(Cn2c(SCC(=O)Nc3ccccc3C)nc3ncccc3c2=O)cc1	0	0.33
CCC(=O)N1CCNC(=O)C1CC(=O)Nc1ccc(C)c(Cl)c1 (stereo not drawn)	0.05	0.83
CCNCC(=O)NCc1cccs1	0.65	·
COC(=O)C1C(=O)CC(=O)CC1c1ccc(OC)cc1 (stereo not drawn)	-0.7	0.69
Cc1nc2c(C#N)c(-c3ccc(Cl)cc3)ccn2n1	-0.9	1.3
CCOc1ccccc1NC(=O)C1=C(C)NC(=O)NC1c1ccc(OC)cc1 (stereo not drawn)	·	-0.21
Cc1ccc(NC(=O)CNCCCN2CCOCC2)cc1Br	-0.75	·
COc1ccc2c(c1)-c1c(ssc1=S)C(C)(C)N2C(=O)CSc1n[nH]c(-c2ccc(C)cc2)n1	·	-0.24
O=C(NCCc1ccccc1)c1ccc(NC2=NC3CS(=O)(=O)CC3S2)cc1 (stereo not drawn)	-0.75	81
COCCN(CCOC)c1ncnc2c1c(-c1ccccc1)cn2-c1cccc(C(F)(F)F)c1	·	-0.23
Cc1ccc(NC(=O)COC(=O)c2cccs2)c(C)c1	0.95	0.89
O=C(Nc1nc(-c2ccc(Br)cc2)cs1)c1c(O)c2cccc3c2n(c1=O)CCC3	·	-0.15
c1ccc(C(c2ccccc2)N2CCN(CCCc3c[nH]c4ccccc34)CC2)cc1	1.8	-0.08
CNC(=O)n1cc(Br)c(/C(N)=N\OCc2ccccc2)n1	-0.95	0.5
COc1ccc(Oc2cccc3c2C(=O)/C(=C\N(C)C)C3c2ccccc2)cc1 (stereo not drawn)	·	0.77
CSc1nc(-c2cnccn2)nc(-c2ccco2)c1C#N	-0.4	-0.21
O=C(/C=C/c1cnc2ccccc2n1)N1CCN(S(=O)(=O)c2ccccc2)CC1	0.35	·
CC1Cc2ccccc2N1C(=O)COc1ncnc2sccc12 (stereo not drawn)	-0.15	·
CN1CCN(C2=C(C(=O)Nc3ccc(Cl)cc3)CC/C2=C\c2ccccc2)CC1	-0.45	·
O=C(Nc1ccccc1)c1cc2cccnc2nc1C(F)(F)F	·	-0.06
COc1ccc(-c2nc(-c3ccc(Br)cc3)c(-c3ccc(Br)cc3)[nH]2)c(OC)c1	·	0.41
CCOc1ccc(-c2cn3cc(Cl)ccc3n2)cc1	·	62

(list continues)
SMILES	AID504770	CapD inh
O=C1/C(=C/c2ccsc2)Cc2ccccc21	-1.9	-1.1
O=C(NCCN1CCCCC1)Nc1cccc(Cl)c1	-0.35	-0.17
O=C(NCCO)c1ccc(-c2nnc(Nc3ccc(O)cc3)c3ccccc23)cc1	·	-0.62
O=C(C1CC2c3ccccc3C1c1ccccc12)N1CCOCC1 (stereo not drawn)	-0.3	·
COc1ccc(Cn2c(CN3C(=O)c4ccccc4C3=O)nc3cccnc32)cc1	-1.1	-0.59
CC1=CC2=NC(C(F)(F)F)(C(F)(F)F)N=C(C)N2C=C1	2	-1.4
Cc1ccc(C(=O)Nc2nnc(SCC(=O)N3CCCCC3)s2)cc1	-1.1	0
Cc1nc(-c2ccc(-c3ccno3)s2)no1	-0.3	14
CCC(C)NC(=O)Nc1cccc2ccccc12 (stereo not drawn)	-0.8	12
Cc1cccc(CC(=O)N2CCC3(CC2)OCCO3)c1	-0.7	0.82
CN(Cc1ccco1)C(=O)CSc1ccc2c(c1)OCCO2	-0.55	·
COc1cc(OC)nc(OC(Cc2ccnc3ccccc23)c2ccc(C(F)(F)F)cc2)n1 (stereo not drawn)	·	-0.08
CCOC(=O)c1sc(NC(=O)c2cc(S(N)(=O)=O)c(Cl)cc2Cl)c(C(=O)OCC)c1C	·	-0.22
COc1ccc(CC(=S)N2CCOCC2)cc1	-1.3	-0.59
O=C(Nc1ccccc1)O/N=C1/CCCc2occc21	-0.45	0.44
Cc1cc(NC(=O)C2CCN(S(=O)(=O)c3ccccc3)CC2)ccc1-n1cnnn1	1.1	·
CCn1nc(C(=O)O)c(=O)c2cc3c(cc21)OCO3	-1.8	-1.5&-0.21
Cc1ccc(CCNC(=O)CCn2cnc3onc(-c4ccc(F)cc4)c3c2=O)cc1	-1.2	0.52
CN1/C(=C\C(=O)COC(=O)CC2CCCC2)C(C)(C)c2ccccc21	0.55	·
CC(=O)NCCn1c(SCc2ccccc2C)nc2ccccc2c1=O	0.75	57
Cn1ccsc1=NC(=O)c1ccc2c(c1)C(=O)N(Cc1ccccc1)C2=O	-0.9	·
COc1ccc(Cn2c(=S)[nH]c3cc(C(=O)Nc4ccc(OC)c(OC)c4)ccc3c2=O)cc1	·	-0.24
O=S(=O)(Nc1ccc2c(c1)nc1n2CCN(Cc2ccccc2)C1)c1ccccc1	0.35	-0.26
CC(C)(Nc1ccccc1N)c1nc2ccccc2[nH]1	-1	-0.44
Cc1nn(Cc2nnc(-c3cccs3)o2)c(C)c1Br	-0.55	-0.51

Already shown: 3 of the compounds above.
SMILES	AID504770	CapD inh
O=C1/C(=C/c2ccsc2)Cc2ccccc21	-1.9	-1.1
O=C(NCCN1CCCCC1)Nc1cccc(Cl)c1	-0.35	-0.17
O=C(NCCO)c1ccc(-c2nnc(Nc3ccc(O)cc3)c3ccccc23)cc1	·	-0.62

Additional compounds.
SMILES	AID504770	CapD inh
CCn1c(C(=O)NCc2ccc(C)cc2)cc2oc3ccccc3c21	1.1	8.1
COc1ccccc1C(=O)Nc1ccc(-c2nnc3n2CCCCC3)cc1	·	-0.3
COc1ccc(C(=O)Cn2c(-c3cccnc3)ccc(C#N)c2=O)cc1	0.25	·
CS(=O)(=O)N(CC(O)Cn1cc(/C=N/O)c2ccccc21)c1ccc(Cl)cc1 (stereo not drawn)	0.35	·
CCCc1c(C(=O)Nc2ccnn2C)cnn1-c1ccccc1	·	0.35
Cc1ccc(CCNC(=O)C2CCCN(Cc3nc(-c4ccc(Cl)cc4)oc3C)C2)cc1 (stereo not drawn)	-0.5	1.1
COc1ccc(CNCC(O)CSc2ccc(OC)cc2)cc1 (stereo not drawn)	-0.95	-0.45
Cc1nc(NCCNC(=O)c2ccco2)c2c(C)c(C)sc2n1	1.1	·
Oc1ccc2ccccc2c1/C=N/NC1=NCCC1	-0.2	·
COc1cc(C(=O)N2CCc3c(F)c(F)c(F)c(F)c32)cc(OC)c1OC	·	0.11
O=C(CSc1nc2ccccc2[nH]1)NCC12CC3CC(CC(C3)C1)C2	·	-0.35
N/C(CC(=O)Nc1ccc(F)cc1)=N\OC(=O)c1cccs1	·	-0.69
Cc1ccc(C(=O)N/N=C/c2c[nH]c3ccccc23)cn1	-0.95	-2.4
COc1ccc2c(OC)cccc2c1	0.65	0.34
COc1ccc(C(=O)Nc2ccc(C)cn2)cc1	0.65	0.045
Cn1nc(-c2ccc(C(C)(C)C)cc2)[nH]c1=O	·	0.32
CC(OC(=O)c1ccc2ncsc2c1)C(=O)N1CCCCC1 (stereo not drawn)	0.4	·
Oc1ccc2ccccc2c1/C=N/c1nccs1	-0.05	·
CC1=NN(c2ccccc2)C(=O)C1C1C(=O)N(c2ccccc2)N=C1C (stereo not drawn)	-0.5	0.14
CCOC(=O)C1=C(CC)NC2=C(C(=O)CC(C)(C)C2)C1c1cc(OC)ccc1OC (stereo not drawn)	-0.75	4.3
O=C1CSC2(N1)C1CC3CC(C1)CC2C3 (stereo not drawn)	·	-0.71
COc1ccc(OC)c(NC(=O)c2cc(S(=O)(=O)NCC3COc4ccccc4O3)ccc2F)c1 (stereo not drawn)	0.6	0.45
O=C1CCCC2=C1C(c1ccccc1F)CC(=O)N2c1ccc(Br)cn1 (stereo not drawn)	-1.1	·
NC1=C(c2ccc(F)cc2)C(=O)CS1	-0.15	0.09
NC(=S)c1cc2ccccc2oc1=O	-0.05	0.095

The listing continues.
SMILES	AID504770	CapD inh
N#C/C(=C/c1cccn1-c1ccc(Br)cc1)C(=O)NCc1ccco1	0.8	-0.68
Cc1ccc(NC(=O)CSc2nc(C)cc(C(F)(F)F)c2C#N)cc1	·	-0.33
CC(C)(NS(=O)(=O)c1cccs1)C(=O)O	-0.75	·
CN(CCc1ccccc1)Cc1c(F)cccc1F	1.3	-0.01
Cn1c(=O)n(CCOc2ccc3ccccc3c2)c2ccccc21	-0.1	0.74
CCOc1ccc(Nc2nc(CC(=O)OC)cc(=O)[nH]2)cc1	0.35	-0.64
CCc1sc(-c2ccc(Cl)cc2)nc1C(=O)OC	-0.2	21
O=CN(/C=C1\Sc2ccccc2C1=O)c1cccc2ccccc12	·	-2.2
CCOc1cc(C2C(C(=O)OCc3ccc(OC)cc3)=C(C)NC3=C2C(=O)CCC3)cc(Cl)c1O (stereo not drawn)	·	9.5
CC1CCCC(C)N1/N=C/c1ccc(N(C)C)cc1 (stereo not drawn)	-0.2	·
CCOC(=O)N1CCC(NC(=O)CNS(=O)(=O)c2ccc(Br)s2)CC1	-0.95	-0.11
O=C(CCC(=O)Nc1ccc(Br)cn1)NCC(=O)NNC(=O)OCc1ccccc1	·	-0.12
CCO/C=C1\SC(=S)N(c2ccc(Cl)cc2)C1=O	0.85	0.45
COc1ccccc1-c1oc2ccccc2c(=O)c1OC(=O)c1cccs1	1.9	16
Cc1nc2sccn2c1C(=S)NC(=O)c1ccc(S(=O)(=O)N2CCCCCC2)cc1	-0.05	·
CC(=O)Nc1ccc(CC(C#N)C#N)cc1	·	1.8
CCOC(=O)c1c(-c2ccccc2)oc2cc(Br)c(OCc3ccc([N+](=O)[O-])cc3)cc12	·	0.51
Clc1cc(Cl)cc(Oc2nc3ccccc3nc2Cc2ccccc2)c1	·	-0.15
CCOC(=O)c1c(C)oc2ccc(N(C(=O)c3cccc([N+](=O)[O-])c3)S(=O)(=O)c3ccc(Br)cc3)cc12	·	0.075
O=C(CSc1ccc(C(F)(F)F)cn1)c1ccc2c(c1)OCCO2	2.5	-0.6
Cc1[nH]c2ccccc2c1SCc1n[nH]c(=S)n1C	·	-0.1
Cc1nc(/N=C(\N)Nc2cccc(Cl)c2C)[nH]c(=O)c1C	-0.45	2.8
Cc1ccc2[nH]c(C)c(CCNS(=O)(=O)c3ccc4c(c3)CCN4S(C)(=O)=O)c2c1	-1.2	0.04
O=C1/C(=C2/NCCN2C2CC(=O)N(c3ccccc3)C2=O)CC/C1=C\c1ccccc1 (stereo not drawn)	-0.15	·
CN(C)c1ccc(C(=S)N2CCCC2)cc1Br	-0.85	-0.39

(more compounds)
SMILES	AID504770	CapD inh
Cc1ccc(S(=O)(=O)/N=C(/NC(=S)Nc2ccccc2)c2ccccc2)cc1	-0.3	0.23
O=C1CCN(C(=O)CCNC(=O)c2ccc(Cl)cc2)CC1	-0.5	·
O=C(CCCc1ccccc1)Nc1ccccc1O	0.4	-0.075
C=C(C)CC1(NC(C)c2ccccc2)CCCCC1 (stereo not drawn)	0.85	-0.79
C=CCN1C(=O)OC(C)(CCC=C(C)C)C1(C)O (stereo not drawn)	-0.9	-0.59
O=C(/C=C/c1ccco1)Nc1cccc(-c2nc3ccccc3o2)c1	1.6	·
COC(=O)c1ccc(NC(=O)C23CC4CC(CC(Cl)(C4)C2)C3)cc1	0.55	-0.35
CC(Oc1ccccc1)C(=O)N[C@@H]1C(=O)N2[C@@H]1SC(C)(C)[C@@H]2C(=O)O (stereo partly drawn)	·	-0.51&1.7
C=CC1CN2CCC1CC2C(OC(=O)OCC)c1ccnc2ccc(OC)cc12 (stereo not drawn)	0.95	15
N#Cc1cn(CC(=O)N2CCCC2)c2ccccc12	-3.1	·
COc1cccc(OC)c1CN(C)C(=O)c1cnc(SC)cc1C(F)(F)F	1	1.1
COc1ccc2c(c1)Nc1ccccc1S2	1.9	4.5
CCc1nnc(NC(=O)COc2ccc(Cl)cc2)s1	0.05	i
NNC(=O)C(O)c1ccccc1 (stereo not drawn)	0.8	0.52
O=C(O)C1C(=O)NCC1c1ccccc1 (stereo not drawn)	0.8	0.04
CCCc1cc(=O)[nH]c(SCc2cc(C(=O)OC)c(C)o2)n1	-0.65	·
O=C(O)CSCC(=O)Nc1ccc(-c2csnn2)cc1	-1.9	-0.08
CN1C(=O)C(=C/C=C/c2ccccc2)C(=O)N(C)C1=O	1.1	·
COc1cc2[nH]c(=S)nc(Nc3ccc(NC(C)=O)cc3)c2cc1OC	0.95	2.8
CCOC(=O)c1c(C)[nH]c(C)c1S(=O)(=O)NCC1CCN(Cc2ccccc2F)CC1	-0.55	-0.03
COc1ccc(Nc2c([N+](=O)[O-])cc(C(=O)N3CC(=O)Nc4ccccc43)cc2[N+](=O)[O-])cc1	·	-1.3
O=C1c2cc(S(=O)(=O)Oc3ccccc3)cc([N+](=O)[O-])c2-c2c1cc(S(=O)(=O)Oc1ccccc1)cc2[N+](=O)[O-]	·	-0.16
CCOc1ccc2oc(C(=O)OCC(=O)N3CCCc4ccccc43)c(C)c2c1	-0.35	·
O=C(O)C1CC(=O)N(C2CCCC2)C1 (stereo not drawn)	-0.5	0.53
c1ccc(CN2CCSCC2)cc1	0.75	0.21
O=C(NC1CCCCCC1)c1c(O)c2ccccc2[nH]c1=O	0	·

Reformatted as labelled records: 4 of the compounds above
canonical_smiles: N#Cc1cn(CC(=O)N2CCCC2)c2ccccc12
- AID504770: -3.1
- CapD inh: ·
canonical_smiles: COc1cccc(OC)c1CN(C)C(=O)c1cnc(SC)cc1C(F)(F)F
- AID504770: 1
- CapD inh: 1.1
canonical_smiles: COc1ccc2c(c1)Nc1ccccc1S2
- AID504770: 1.9
- CapD inh: 4.5
canonical_smiles: CCc1nnc(NC(=O)COc2ccc(Cl)cc2)s1
- AID504770: 0.05
- CapD inh: i

Reformatted as labelled records: entries from further up.
> CCOC(=O)c1c(C)[nH]c(C)c1S(=O)(=O)NCC1CCN(Cc2ccccc2F)CC1
  AID504770 = -0.55 | CapD inh = -0.03

> COc1cc2[nH]c(=S)nc(Nc3ccc(NC(C)=O)cc3)c2cc1OC
  AID504770 = 0.95 | CapD inh = 2.8

Some of the compounds tested. The share of hits here may be higher or lower than overall.
